# PV pol inh: poliovirus RdRp elongation inhibitors, primary screen, biochemical, fluorescence polarization, total intensity; Genome polyprotein (Poliovirus type 1 (strain Mahoney)), P03300; poliovirus polymerase elongation; stronger effect = lower value; % elongation, % (compound at 16.7 µg/mL); 150,000 compounds, 0.66% hits; AID 588519, 2011; in the data active = % elongation below about 90%; note: some results filed as inactive read as strong as hits
# Target sequence (P03300 1749-2209 limits assumed): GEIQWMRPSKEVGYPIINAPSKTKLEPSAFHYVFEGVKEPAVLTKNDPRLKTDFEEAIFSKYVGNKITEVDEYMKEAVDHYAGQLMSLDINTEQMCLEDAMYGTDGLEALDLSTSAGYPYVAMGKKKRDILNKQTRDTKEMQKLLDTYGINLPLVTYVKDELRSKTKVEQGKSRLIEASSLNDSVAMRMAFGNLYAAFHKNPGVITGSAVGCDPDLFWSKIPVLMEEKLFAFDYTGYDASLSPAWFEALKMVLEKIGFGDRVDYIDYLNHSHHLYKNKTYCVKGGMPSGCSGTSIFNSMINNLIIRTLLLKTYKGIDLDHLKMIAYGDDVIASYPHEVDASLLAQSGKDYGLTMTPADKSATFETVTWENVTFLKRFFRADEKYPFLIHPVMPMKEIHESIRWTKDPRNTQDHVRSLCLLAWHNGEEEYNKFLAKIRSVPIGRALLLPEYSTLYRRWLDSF
# PV pol inh intensity: second read-out of PV pol inh, no call of its own (marks repeat the call); % elongation; measured here: total intensity read-out; formula for this scale not given here;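 total fluorescence in place of polarization; lower means less elongation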
# * hit, by the source's call. Not all compounds are listed; count on the stated rates, not on these rows.
# Sequence of screens: PV pol inh, PV pol inh intensity
(1) Cc1ccccc1Cn1c(=O)n(-c2ccc(Cl)cc2)c(=O)c2c3c(sc21)CCCC3
→ 110, 111
(2) CSc1ccc(CCNC(=O)c2ccc3c(c2)nc2n3CCOC2)cc1
→ 110, 116
(3) Cc1c(C)n(Cc2ccc(F)cc2)c2ccc(C(=O)NCc3ccco3)cc12
→ 105, 108
(4) CCOC(=O)c1[nH]c(C)c(CCC(=O)N2CCN(c3cccc(C)c3C)CC2)c1C
→ 107, 107
(5) CCOC(=O)c1c(C)oc2nc(C)nc(Nc3cc(C)ccc3OC)c12
→ 113, 109
(6) COC(=O)c1c(NC(=O)/C=C/c2ccc(OC)c(OC)c2)sc2c1CCC2
→ 108, 110
(7) CCOc1ccc(NS(=O)(=O)c2ccc(C(=O)N(C)C)s2)cc1
→ 107, 105
(8) Cc1ccccc1Nc1sc(C(=O)c2ccc(F)cc2)c(N)c1C(=O)NCCc1ccccc1
→ 105, 113
(9) COC(=O)c1c(NC(=O)c2ccc(S(=O)(=O)N(C)C3CCCCC3)cc2)sc2c1CCN(C)C2
→ 115, 108
(10) C=C(C)CSc1nc2sc3c(c2c(=O)n1-c1ccccc1)CCC(C)C3 (stereo not given)
→ 111, 112
(11) Cc1ccc(N2CCN(C(=O)Cn3ncc4c([nH]c5ccc(C)cc54)c3=O)CC2)c(C)c1
→ 110, 116
(12) COc1cc(C(c2c(O)c3ccccc3oc2=O)c2c(C)n(C)n(-c3ccccc3)c2=O)ccc1O (stereo not given)
→ 105, 105
(13) Cc1ccc(-n2c(=O)c3c(c4cc(C)ccc4n3C)n(CC(=O)NCc3ccccc3Cl)c2=O)cc1
→ 96, 96
(14) Cc1cc(C)c2c(c1)NC(=O)C2(O)c1c[nH]c2ccccc12 (stereo not given)
→ 107, 109
(15) O=C(Cn1c(=O)n(-c2ccccc2)c(=O)c2ccc(C(=O)NCc3ccc4c(c3)OCO4)cc21)Nc1ccc(Br)cc1F
→ 103, 101
(16) CC(=O)Nc1ccc(Nc2nnc(-c3ccc(C)c(S(N)(=O)=O)c3)c3ccccc23)cc1
→ 109, 109
(17) Cc1ccc(NC(=O)c2ccc3[nH]c(C)cc(=O)c3c2)cc1
→ 101, 106
(18) N#Cc1c(-n2ncnc2-c2ccc(F)cc2)sc2c1CCCCC2
→ 108, 111
(19) COc1ccc(Cl)cc1NC(=O)Cn1c(=O)n(Cc2ccc(F)cc2)c(=O)c2cccnc21
→ 107, 107
(20) Clc1ccc(CN2CCc3nc(N4CCN(c5ccccn5)CC4)ncc3C2)cc1
→ 100, 94

# Continuation:
# Sequence of screens: PV pol inh, PV pol inh intensity
(21) COc1cccc2cc(-c3nc(-c4cccs4)no3)c(=O)oc12
→ 101, 105
(22) Cc1ccc(C)c(N2CCN(c3cc(C)nc4c(-c5ccc(Cl)cc5)c(C)nn34)CC2)c1
→ 109, 109
(23) O=C(CSc1nc2ccccc2n1CC(=O)Nc1ccc(F)cc1F)Nc1ccc(F)cc1
→ 105, 104
(24) COC(=O)CNC(c1ccccc1)c1cc(Br)ccc1NC(=O)c1cc(OC)c(OC)c(OC)c1 (stereo not given)
→ 105, 109
(25) Cc1ccc(OC(=O)c2cc(-c3ccc(Cl)cc3)on2)c(C)c1
→ 110, 111
(26) Cc1ccc(CN2CCCn3nc(C(=O)NCCc4ccc(Cl)cc4)cc3C2=O)cc1
→ 106, 107
(27) CCc1ccc(NC(=O)CSc2nc3n[nH]c(C)c3c(=N)n2-c2ccccc2C)cc1
→ 108, 116
(28) COc1ccc(NC(=O)c2nc(S(=O)(=O)Cc3ccc(C)cc3)ncc2Cl)cc1
→ 110, 111
(29) Cn1nnnc1SCCCNCc1ccccc1OCc1ccc(F)cc1
→ 103, 108
(30) CCOc1ccccc1NC(=O)c1nn(-c2ccc(C)cc2)c(=O)n(C)c1=O
→ 99, 105
(31) CC(Sc1nc2c(c(=O)[nH]1)CCCC2)C(=O)Nc1cc(C(F)(F)F)ccc1Cl (stereo not given)
→ 106, 105
(32) CCOc1ccccc1NC(=O)c1c(NC(=O)Cc2ccccc2)sc2c1CCCC2
→ 107, 111
(33) Cc1ccc(NS(=O)(=O)c2ccc3c(c2)NC(=O)C(C)C(=O)N3)cc1F (stereo not given)
→ 109, 112
(34) COc1ccc(CCNC(=O)C(C)n2c(=O)cc(-c3ccccc3)c3c(C)nn(C)c32)cc1OC (stereo not given)
→ 108, 112
(35) COc1cccc(CNC(=O)C2CCN(S(=O)(=O)c3ccc4c(c3)CCCN4C(C)=O)CC2)c1
→ 109, 96
(36) CCOc1cc(CNC(=O)c2ccc3c(c2)NC(=O)C2CCCCN32)cc(OCC)c1OCC (stereo not given)
→ 111, 111
(37) CCC(=O)Nc1cc(-c2nc3ccccc3s2)c(Cl)cc1Cl
→ 109, 107
(38) COc1ccccc1NC(=O)Cn1ccn(-c2cc(C)cc(C)c2)c(=O)c1=O
→ 112, 113
(39) O=C(Nc1ccc(N2CCOCC2)c(C(=O)O)c1)c1ccc(Br)cc1
→ 114, 103
(40) CCN(CC)S(=O)(=O)c1ccc2c(c1)N(CC(=O)NCc1ccc(F)cc1)C(=O)CO2
→ 106, 107

# (cont.)
# Sequence of screens: PV pol inh, PV pol inh intensity
(41) CCOCCCN(Cc1ccco1)S(=O)(=O)c1cc2c(cc1Cl)NC(=O)CO2
→ 102, 108
(42) COc1ccc(OC)c(CNCc2c(C(=O)O)n(Cc3ccccc3)c3cc(OC)ccc23)c1
→ 110, 112
(43) CCc1ccc(-n2nc(C)c3c(C(=O)Nc4cc(C)ccc4C)cc(C)nc32)cc1
→ 112, 113
(44) Cc1c(Cl)ccc2sc(NC(=O)c3ccc(S(=O)(=O)N4CCCc5ccccc54)cc3)nc12
→ 114, 114
(45) CCOc1ccc(-c2nc(Cn3c(=O)cc(-c4ccccc4)c4c(C)nn(C)c43)c(C)o2)cc1
→ 105, 100
(46) CC(C)Oc1ccc(CNC(=O)c2ccc(Cn3c(=O)c4cccn4c4cccnc43)cc2)cc1
→ 104, 111
(47) CC(=O)Nc1cccc(NC(=O)CSc2nccn2Cc2ccco2)c1
→ 108, 107
(48) O=C(Nc1ccc(Cl)cc1)N1CCN(c2ccc3nnc(-c4ccc(F)cc4)n3n2)CC1
→ 104, 102
(49) Cc1ccc2nc(COc3ccccc3NC(=O)C(C)(C)C)cc(=O)n2c1
→ 105, 111
(50) COc1ccc(CNC(=O)c2cc3c(s2)-c2ccccc2OC3)cc1
→ 104, 108
(51) COc1cccc(NC(=O)c2ccc(CNS(=O)(=O)c3ccc4c(c3)C(C)(C)C(=O)N4C)cc2)c1
→ 119, 120
(52) CCOc1ccccc1CNc1nc2nc(C)c(CC(=O)OC)c(=O)n2[nH]1
→ 111, 107
(53) Cc1ccc(OCC(=O)Nc2ccc(C(=O)OCc3cc(=O)n4ccsc4n3)cc2)cc1C
→ 102, 105
(54) CCOc1ccccc1NC(=O)Nc1cc2c(cc1N1CCCCC1)n(CC)c(=O)n2CC
→ 103, 104
(55) CCN(c1ccccc1C)S(=O)(=O)c1nnc(NC(=O)c2ccccc2C)s1
→ 113, 112
(56) COc1ccc(-c2cn3c(n2)sc2cc(C(=O)Nc4ccc(F)cc4Cl)ccc23)cc1
→ 106, 109
(57) CCn1c2ccccc2c2cc(CN3CCN(Cc4ccccc4Cl)CC3)ccc21
→ 103, 107
(58) COCCCNC(=O)c1ccc(C)c(-n2c(C)nc3cccnc32)c1
→ 104, 110
(59) O=C(CCc1ccccc1)NCc1ccc2c(c1)CCN2C(=O)c1ccccc1
→ 110, 114
(60) CCc1nn(CC(=O)NCCCN2CCN(CC)CC2)c(=O)c2cc3occc3n12
→ 105, 105

# Next section:
# Sequence of screens: PV pol inh, PV pol inh intensity
(61) COc1cc(OC)c(NC(=O)N2CCN3CCCCC3C2)cc1Cl (stereo not given)
→ 106, 112
(62) CCCSc1ncc(Cl)c(C(=O)Nc2ccc(S(=O)(=O)Nc3ncccn3)cc2)n1
→ 108, 111
(63) CCOC(=O)C(C)NC(=O)C1CCN(c2ncnc3c2nc2n3CCCCC2)CC1 (stereo not given)
→ 104, 109
(64) COc1ccc2nc(NC(=O)c3nc(S(=O)(=O)Cc4cccc(C)c4)ncc3Cl)sc2c1
→ 111, 110
(65) COc1ccccc1CNC(=O)c1ccc(Cn2c(SCc3ccccc3)nc3cccnc32)cc1
→ 103, 111
(66) CCOC(=O)c1c(C)[nH]c(CCC(=O)NCc2cc(OC)c(OC)c(OC)c2)c1C
→ 116, 119
(67) COc1ccc(Cc2nc3c4cnn(-c5cccc(F)c5)c4ncn3n2)cc1
→ 116, 114
(68) CCCNC(=O)c1cnn2c(C)c(Cc3c(C)cc(C)cc3C)c(C)nc12
→ 106, 106
(69) CCOC(=O)c1ccc(NC(=O)CC2C(=O)N(c3ccc(F)cc3)C(=O)N2Cc2cccnc2)cc1 (stereo not given)
→ 107, 112
(70) CCOC(=O)c1[nH]c2ccccc2c1NC(=O)c1ccc(OC)c(OC)c1
→ 100, 96
(71) CCCCCn1c(-c2ccc(OC)c(OC)c2)nc2ccccc21
→ 108, 105
(72) Cc1ccc(NC(=O)CCNS(=O)(=O)c2cccs2)cc1F
→ 109, 112
(73) CCOC(=O)c1c(C)c(-c2ccccc2)n(CC(=O)Nc2ccc(OCC)cc2)c1C
→ 104, 109
(74) COc1cc(OC)c(NC(=O)C(NS(=O)(=O)c2cccc3nsnc23)c2ccccc2)cc1Cl (stereo not given)
→ 106, 105
(75) Cc1ccc(-c2nc(SCC(=O)N3CCc4ccccc43)c3c(=O)n(C)c(=O)n(C)c3n2)cc1
→ 108, 110
(76) COc1cccc(-c2nc(C(N)=O)c3c(n2)n(-c2ccc4c(c2)OCO4)c(=O)n3C)c1OC
→ 106, 109
(77) CCCOc1ccc(C(=O)Nc2ccc(-c3cc4ccccc4oc3=O)c(C)c2)cc1
→ 107, 115
(78) CCN(C(=O)c1cc2c(s1)-c1ccccc1OC2)c1cc(Cl)ccc1OC
→ 102, 103
(79) Cc1ccccc1NC(=O)CSCn1nnc2c(=O)[nH]c(Cc3ccc(F)cc3)nc21
→ 107, 107
(80) Cc1c(C)n(Cc2ccccc2)c2ccc(C(=O)NCCc3ccccc3Cl)cc12
→ 101, 104

# Continued:
# Sequence of screens: PV pol inh, PV pol inh intensity
(81) O=C(Nc1cccc(C(=O)OCc2cc(=O)n3nc(C4CC4)sc3n2)c1)c1cccc(F)c1
→ 109, 116
(82) Cc1ccc(CSCC(=O)N2CCN(c3cc(Cl)ccc3C)CC2)cc1
→ 114, 119
(83) CC(C)c1ccc(NC(=O)c2ccc3oc(=O)c(S(=O)(=O)c4ccc(F)cc4)cc3c2)cc1
→ 105, 107
(84) CCOc1ccccc1NC(=O)c1nnn(CC(=O)Nc2ccc(OC)c(OC)c2)c1N
→ 104, 112
(85) Cc1ccc(C)c(CN2CCCN(Cc3ccc(F)cc3)S2(=O)=O)c1
→ 107, 111
(86) CCOC(=O)C1CCCN(C(=O)c2ccc3c(c2)N(Cc2cccc(Cl)c2)C(=O)c2ccccc2S3(=O)=O)C1 (stereo not given)
→ 103, 103
(87) COc1ccc(CNC(=O)c2cnc3sc(N4CCCC4)nn3c2=O)cc1OC
→ 106, 111
(88) COc1ccc(OCC(=O)Nc2cccc(C(=O)OCc3cc(=O)n4nc(C)sc4n3)c2)cc1
→ 103, 99
(89) CCOc1cccc(CNCCNC(=O)c2nonc2N)c1
→ 101, 101
(90) Cc1cc(C)cc(N2C(=O)CC(c3ccc(C(F)(F)F)cc3)C3=C2COC3=O)c1 (stereo not given)
→ 101, 102
(91) COc1cc(NC(=O)c2nc3ccccc3nc2N2CCCCC2)cc(OC)c1OC
→ 114, 116
(92) COc1ccc(OCC(=O)N2CCN(Cc3cccc(OC)c3OC)CC2)cc1
→ 101, 97
(93) CCC(=O)N1CCc2cc(CNC(=O)c3cccc(N(C)C)c3)ccc21
→ 107, 105
(94) CCN(CC)S(=O)(=O)c1nnc(NC(=O)COc2ccc(C)cc2)s1
→ 105, 103
(95) Cc1ccc(-n2ncc(C(=O)N3CCCCC3)c2C2CCN(C(=O)OC(C)(C)C)CC2)c(C)c1
→ 106, 112
(96) COc1ccc2c(c1)c(CC(=O)Nc1ccc(C(C)=O)cc1)c(C)n2C(=O)c1ccc(Cl)cc1
→ 106, 106
(97) Cc1ccc(NC(=O)Cn2nnc(C(=O)NCCc3ccccc3)c2N)cc1
→ 107, 110
(98) COc1cc(/C=C(\C#N)c2nc3ccccc3c(=O)[nH]2)cc(OC)c1OC
→ 101, 114
(99) Cc1ccc(C)c(Nc2nn3c(=O)c4ccc(C(=O)N(C)Cc5ccccc5)cc4nc3s2)c1
→ 106, 94
(100) COc1ccccc1Cc1nc2ccccc2nc1SCC(=O)NCc1ccccc1Cl
→ 114, 102

# (listing goes on)
# Sequence of screens: PV pol inh, PV pol inh intensity
(101) Cc1cc(-c2nc3ncccc3o2)ccc1NC(=O)c1ccc(Cl)cc1
→ 104, 103
(102) COc1ccc(/C=C/C(=O)Nc2nc3n(n2)C(c2ccc(F)cc2)C=C(c2ccccc2)N3)cc1 (stereo not given)
→ 106, 107
(103) CC(=O)c1ccc(N2CCN(c3ncnc4c3cnn4-c3cc(Cl)ccc3C)CC2)cc1
→ 105, 101
(104) Cc1ccccc1CNC(=O)Cn1cc2c(n1)-c1c(oc(C(=O)N3CCCC3)c1C)CC2
→ 89, 85
(105) Cc1ccc(Cl)cc1N1CCN(C(=O)C2CCN(Cc3nc(-c4ccc(Cl)cc4)oc3C)CC2)CC1
→ 104, 105
(106) CCCNC(=O)c1cnn(-c2ccc(C)c(C)c2)c1C1CCN(C(=O)OC(C)(C)C)CC1
→ 112, 114
(107) COc1cc(OC)cc(C(=O)N2CCN(C(=O)COc3ccc(C)cc3)CC2)c1
→ 108, 113

# Source: PubChem BioAssay
